VACV mCherry inh: qHTS for Stage-Specific Inhibitors of Vaccinia Orthopoxvirus: mCherry Reporter Primary qHTS; Vaccinia virus mCherry reporter infection, fluorescence; about a quarter of the inactives have no number; Potency, µM (series often up to 36.5 µM), for the others: at the highest dose activity change, negative = inhibition, most hits filed as inhibitors; actives 0.63% (n = 310,000); active = well fitted inhibition curve with a large enough effect; inconclusive = small, poorly fitted or top-dose-only effect; inactive = no such curve, though single readings can be large or run the other way; tested in A549 cells; also: nearly all actives have a fitted effect of over 35% in size; inactives centre near -10
VACV Venus inh: qHTS for Stage-Specific Inhibitors of Vaccinia Orthopoxvirus: Venus Reporter Primary qHTS; Potency, µM (highest dose often 36.5 µM), for inactives: at the top dose activity change, negative = inhibition, most hits filed as inhibitors; actives 0.46% (n = 330,000); Vaccinia virus Venus reporter expression, fluorescence; AID 720580, 2013; active means well fitted inhibition curve with a large enough effect; inconclusive means small, poorly fitted or top-dose-only effect; inactive means no such curve, though single readings can be large or run the other way; tested in A549 cells; also: nearly all actives have a fitted effect of over 30% in size; inactives centre near -10
Numbers without * were called inactive; i = inactive; ? = inconclusive; nt = not tested or not shown; [ ] = remark or other dose. % is scaled to controls: 0 for no effect and ±100 for the full control effect; potency is read from the fitted curve at half-maximal effect.

nr | SMILES | VACV mCherry inh | VACV Venus inh
1 | O=C1CC(c2cccc(F)c2)c2c(c3ccccc3[nH]c2=O)O1 (centres undefined) | 4.7% | 0.3%
2 | O=C(CN1CCN(c2ccc(F)cc2)CC1)N1N=CCC1c1ccccc1 (centres undefined) | i | 1.7%
3 | COc1cccc(CNS(=O)(=O)c2c(C)nc3scc(C)n3c2=O)c1 | -4.4%[7.34 µM] | 3.9%[7.34 µM]
4 | CCc1ccc(NC(=O)C(C)OC(=O)C2CCN(c3ccc(C(F)(F)F)cn3)CC2)cc1 (centres undefined) | -13.3% | -8.1%
5 | CN(C)C(=O)c1ccccc1Sc1cc(Cl)ccc1Cl | nt | -28.3%
6 | Cc1cccc(-c2nc3c4ccccc4nc(N4CCN(c5ccccc5F)CC4)n3n2)c1 | -1.1% | -8.4%
7 | O=S1(=O)CCN(Cc2csc(-c3cccs3)n2)CC1 | -0.5%[7.34 µM] | -3.6%[7.34 µM]
8 | CCn1c(C)c(C)c2cc(C(=O)NCCN3CCOCC3)ccc21 | -6.2%[7.34 µM] | -3.0%[7.34 µM]
9 | CC(=O)NCCNc1nc(-c2ccccc2Cl)nc2ccccc12 | -18.5% | -17.3%
10 | O=c1c([N+](=O)[O-])c(N2CCCCCC2)c2ccccc2n1-c1ccccc1 | nt | -4.1%
11 | CC(C)CC1NC(=O)N(CC(=O)c2ccc3c(c2)OCCO3)C1=O (centres undefined) | -11.6% | -15.4%
12 | CC1CCc2nc(NC(=O)c3ccc(S(=O)(=O)N4CCCc5ccccc54)cc3)sc2C1 (centres undefined) | -9.9% | -17.6%
13 | CCN=c1scc(C)n1/N=C/c1cc(Br)c(O)c(OC)c1 | -11.3% | -2.5%
14 | CC(C)Cn1c(-c2ccccc2F)n[nH]c1=S | -15.5% | 18.4%
15 | CC(Oc1cc2oc(=O)c3c(c2cc1Cl)CCCC3)C(=O)NCc1ccccn1 (centres undefined) | i | -22.5%
16 | Cc1ccc(-c2nc3c4ccccc4ccn3c2Cc2ccsc2)cc1 | i | 3.5%
17 | CCOc1cccc2c1OC1(C)CC2NC(=O)N1c1cccc(F)c1 (centres undefined) | nt | -14.7%
18 | COc1ccc(NS(=O)(=O)c2ccc(OC)c(NC(=O)CCC3CCCC3)c2)cc1 | -10.4% | -23.4%
19 | COc1ccccc1N1CCN(C(C)C(=O)Nc2ccc(S(=O)(=O)N3CCOCC3)cc2)CC1 (centres undefined) | -5.1% | -13.3%
20 | O=C(CSc1nnc(-c2cccnc2)n1CCc1ccccc1)NCc1ccccc1 | nt | -6.4%

Entries of single compounds, looked up by structure. Order of values: VACV mCherry inh	VACV Venus inh
`COc1cccc(CNS(=O)(=O)c2c(C)nc3scc(C)n3c2=O)c1` as listed: -4.4%[7.34 µM]	3.9%[7.34 µM]
`CC(Oc1cc2oc(=O)c3c(c2cc1Cl)CCCC3)C(=O)NCc1ccccn1` (centres undefined) as listed: i	-22.5%
`CC1CCc2nc(NC(=O)c3ccc(S(=O)(=O)N4CCCc5ccccc54)cc3)sc2C1` (centres undefined) as listed: -9.9%	-17.6%
`CN(C)C(=O)c1ccccc1Sc1cc(Cl)ccc1Cl` as listed: nt	-28.3%
`CC(C)Cn1c(-c2ccccc2F)n[nH]c1=S` as listed: -15.5%	18.4%

Ordered by length of the SMILES (smallest number first): part of the list above.
nr | SMILES | VACV mCherry inh | VACV Venus inh
14 | CC(C)Cn1c(-c2ccccc2F)n[nH]c1=S | -15.5% | 18.4%
13 | CCN=c1scc(C)n1/N=C/c1cc(Br)c(O)c(OC)c1 | -11.3% | -2.5%
16 | Cc1ccc(-c2nc3c4ccccc4ccn3c2Cc2ccsc2)cc1 | i | 3.5%
17 | CCOc1cccc2c1OC1(C)CC2NC(=O)N1c1cccc(F)c1 (centres undefined) | nt | -14.7%
11 | CC(C)CC1NC(=O)N(CC(=O)c2ccc3c(c2)OCCO3)C1=O (centres undefined) | -11.6% | -15.4%
15 | CC(Oc1cc2oc(=O)c3c(c2cc1Cl)CCCC3)C(=O)NCc1ccccn1 (centres undefined) | i | -22.5%
18 | COc1ccc(NS(=O)(=O)c2ccc(OC)c(NC(=O)CCC3CCCC3)c2)cc1 | -10.4% | -23.4%

The listing continues:
nr | SMILES | VACV mCherry inh | VACV Venus inh
21 | O=[N+]([O-])c1ccc(-c2nc(=S)c3c(o2)CCCC3)cc1 | i | -7.6%
22 | CCc1cc2c(=O)c(-c3cnn(-c4ccccc4)c3)c(C(F)(F)F)oc2c(CN(C)C)c1O | i | -12.2%
23 | CCn1nnc(NC(=O)COc2ccc([N+](=O)[O-])cc2)n1 | i | 6.1%
24 | Cc1cc(C)n2nc(SCC(=O)c3ccc[nH]3)nc2n1 | -1.1% | 5.8%
25 | Cc1cc(F)ccc1S(=O)(=O)N1CCCOC1CNC(=O)C(=O)NCc1ccc2c(c1)OCO2 (centres undefined) | -28.7% | -18.4%
26 | Cc1cccc(C(=O)Oc2ccc(/C=N/O)cc2)c1 | -1.6% | -17.2%
27 | COc1ccc(-c2nn(-c3ccccc3)cc2/C=N/Nc2ccc3ccccc3n2)cc1OC | ? | -26.2%
28 | O=[N+]([O-])c1cc(-c2nc(-c3ccccc3)no2)ccc1NCCc1ccccc1 | -10.7% | 2.9%
29 | COC(=O)CCC(=O)Nc1cc(Cl)cc(Cl)c1 | 2.3% | -2.1%
30 | COc1ccc(CCNC(=O)COc2ccc(S(=O)(=O)N3CCOCC3)cc2)cc1OC | i | -12.9%

Retrieved by structure from the list above (4):
nr | SMILES | VACV mCherry inh | VACV Venus inh
22 | CCc1cc2c(=O)c(-c3cnn(-c4ccccc4)c3)c(C(F)(F)F)oc2c(CN(C)C)c1O | i | -12.2%
25 | Cc1cc(F)ccc1S(=O)(=O)N1CCCOC1CNC(=O)C(=O)NCc1ccc2c(c1)OCO2 (centres undefined) | -28.7% | -18.4%
29 | COC(=O)CCC(=O)Nc1cc(Cl)cc(Cl)c1 | 2.3% | -2.1%
21 | O=[N+]([O-])c1ccc(-c2nc(=S)c3c(o2)CCCC3)cc1 | i | -7.6%

Later entries:
nr | SMILES | VACV mCherry inh | VACV Venus inh
31 | COc1cc(-c2cnc3ccccc3c2)cc2c1OCCN(C(=O)CCn1nc(C)cc1C)C2 | -7.1% | -3.9%
32 | Cn1nnnc1SCc1ccc(C(=O)Nc2nccs2)cc1 | -19.7% | -11.8%
33 | Cc1ccc(S(=O)(=O)NC(C(=O)OCC(=O)NC(=O)c2cccn2C)C(C)C)cc1 (centres undefined) | -3.8% | -5.3%
34 | CCC(Oc1ccccc1OC)C(=O)Nc1ccc2c(c1)OCO2 (centres undefined) | -19.4% | -9.3%
35 | Cc1cc(=O)oc2cc(OCC(=O)OCC(=O)NC3CC3)ccc12 | 19.2% | 6.3%
36 | O=C(NCc1ccccc1)C(c1ccc(Cl)cc1)N(C(=O)c1csnn1)C1CC1 (centres undefined) | -5.7% | -9.4%
37 | C=CCN(CC=C)C(=S)NCCc1ccc(OC)c(OC)c1 | -6.3% | -6.1%
38 | O=C(Oc1c(Cl)cc(Cl)c2cccnc12)c1ccco1 | 12.6µM* | ?
39 | Cc1cc(C)n2nc(CNC(=O)c3ccc(Cl)cc3)nc2n1 | -10.3% | -5.4%
40 | CC(=O)Nc1ccc(S(=O)(=O)NC2=NCN(c3cccc([N+](=O)[O-])c3)CN2)cc1 | i | -4.0%
41 | COc1ccc(-c2c(NC(=O)c3ccco3)oc3c(C)cccc3c2=O)cc1OC | -3.7% | -4.6%
42 | Cc1noc(/C=C/c2ccccn2)c1[N+](=O)[O-] | -15.1% | -11.5%
43 | COc1ccccc1-c1cnc2c(c1)C(=O)N([C@@H](C)CO)C[C@@H](C)[C@H](CN(C)C(=O)c1cccnc1)O2 | -4.9% | -8.8%
44 | Cc1cc(NC(=O)C2CCC(CNS(=O)(=O)c3ccc(Br)s3)CC2)ccc1Br (centres undefined) | -7.5% | -15.5%
45 | COc1ccc(NC(=O)c2ccc(NC(=O)COC(=O)c3cnc(C)cn3)cc2)cc1 | -14.7% | -12.7%
46 | CCCCc1nc2ccccc2n1Cc1nnc2n1-c1ccccc1SC2 | -21.0%[1.46 µM] | -6.4%
47 | CCN1/C(=C/c2sc(-c3ccccc3C)c[n+]2C)Sc2ccccc21 | ? | ?
48 | COC(C(=O)Nc1ccnn1C1CCN(Cc2ccccn2)CC1)c1ccccc1 (centres undefined) | -15.2% | -9.2%
49 | CC(=O)N/C(=N\c1nc(C)cc(C)n1)Nc1ccc2ccccc2c1 | i | -16.3%
50 | CCC(=O)N(c1nnc(SCC(=O)Nc2sccc2C(N)=O)s1)C1CC1 | -19.3% | -5.3%
51 | Nc1nnc(Cc2ccc(Cl)c(Cl)c2)s1 | nt | -8.4%
52 | Cc1cc(Nc2cc(Cl)ccc2C)n2nc(Cc3ccccc3)nc2n1 | -17.8% | -9.7%
53 | O=C(COn1nnc2ccc(S(=O)(=O)N3CCOCC3)cc21)NCCc1ccccc1 | -11.9% | -10.9%
54 | Cc1ccc(S(=O)(=O)NCC(=O)N/N=C/c2ccccc2O)cc1 | ? | ?
55 | COc1cccc(-c2nnc(SCC(=O)Nc3cc(C)on3)o2)c1 | ? | -14.6%
56 | O=c1cc(-c2ccccc2Cl)oc2c(NS(=O)(=O)c3cc(Cl)cc(Cl)c3O)ccc(O)c12 | ? | 12.6µM*
57 | CCN(c1ccccc1)S(=O)(=O)c1cc([N+](=O)[O-])ccc1N | i | -21.6%
58 | CCSc1nc2ccccc2n1Cc1cccc([N+](=O)[O-])c1 | -4.0% | -15.5%
59 | O=C(CN1C(=O)c2ccccc2S1(=O)=O)Nc1cccc(S(=O)(=O)N2CCCCC2)c1 | i | -13.2%
60 | COCc1ccc(C(=O)N2CCCC(C(=O)c3cc(F)ccc3F)C2)s1 (centres undefined) | -0.6% | 9.9%
61 | Cc1cccc(NC(=O)c2ccc3snnc3c2)c1 | 5.1% | -1.4%
62 | COc1ccc(-c2c(-c3ccccc3)n(C)c3ccccc23)cc1 | -2.2% | -7.6%
63 | COCCCn1c(-c2ccc(S(=O)(=O)N3CCOCC3)cc2)csc1=Nc1ccccc1 | -5.2% | ?
64 | Cc1ccccc1-c1cc(=O)c2c(O)cccc2o1 | -6.5% | -14.5%
65 | N#CCCN/N=C(/Cc1nc2ccccc2[nH]1)c1cccc(Cl)c1 | -1.1% | 3.9%

Source: PubChem BioAssay
